DUX4 inh = inhibitors of DUX4-driven ZSCAN4 reporter expression, primary screen, 293T cells, Gaussia and Italica luciferase; 293T-iDUX4 ZSCAN4-Gaussia luciferase reporter, 24 h; stronger effect = lower value; activity change, negative = inhibition, % (test concentration not listed); 37,000 tested, 0.8% active;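 active means -10% or lower and over 25 points stronger than a control reporter; inconclusive means -10% or lower with a smaller gap; inactive means above -10%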;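 further: 0% = median of neutral control wells and -100% = median of positive control wells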
DUX4 inh difference = further read-out of DUX4 inh, marked with its call; Gaussia minus Italica difference, %; measured here: selective DUX4 reporter inhibition;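 worked out from the two reporters; negative = selective loss of the DUX4 reporter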
DUX4 inh control = also measured in DUX4 inh; calls as there; activity change, negative = inhibition, %; measured here: Italica tet-on control reporter;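 0 = neutral control and -100 = positive control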
Starred values were filed as active, the others as inactive; ? = inconclusive; . = not tested or not shown. An excerpt; count on the stated rates, not on these rows.

DUX4 inh	DUX4 inh difference	DUX4 inh control	canonical_smiles
?	.	.	O=C(Nc1cccc(F)c1)N1CC(=O)N2[C@H](CO)[C@H](c3ccc(C#CC4CC4)cc3)[C@H]2C1
6	-1	6.8	COc1ccc(C#Cc2ccc3c(c2)[C@@H]2[C@@H](CCN2S(=O)(=O)c2ccc(OC)cc2)[C@@H](CO)N3C)cc1
?	.	.	COc1cccc(NC(=O)N(C)C[C@@H]2OCc3ccccc3-c3c(n(C)c4ccccc34)C(=O)N([C@@H](C)CO)C[C@@H]2C)c1
-9	35	-44	COc1cccc(-c2ccc3c(c2)[C@H]2[C@H](CCN2C(=O)Nc2ccccc2OC)[C@H](CO)N3C)c1
15	6	8.2	COc1ccc2c3c(n(C)c2c1)[C@@H](CO)N(S(C)(=O)=O)CC31CCN(C(=O)C2CCCC2)CC1
17	4	13	COCC#Cc1ccc([C@H]2[C@H]3CN(C(=O)Nc4ccccc4F)CC(=O)N3[C@H]2CO)cc1
4	-1	4.0	CCCc1cn(CC[C@H]2CC[C@H](NC(=O)C3CCOCC3)[C@@H](CO)O2)nn1
4	1	2.8	COc1cccc(C#Cc2cnc3c(c2)C(=O)N([C@@H](C)CO)C[C@@H](C)[C@H](CN(C)C(=O)C2CCCCC2)O3)c1
0	16	-16	CCC(=O)N1CC2(CN(Cc3ccc(F)cc3)C2)c2c(n(C)c3cc(OC)ccc23)[C@H]1CO
7	7	0.2	O=C(c1ccccn1)N1CC2(C1)[C@H](c1ccccc1)[C@@H](CO)N2Cc1cccnc1
5	9	-3.6	O=C(C[C@H]1CC[C@@H]2[C@H](COC[C@@H](O)CN2S(=O)(=O)c2ccc(F)cc2)O1)N[C@H]1CCN(Cc2ccccc2)C1
-6	-9	2.9	C/C=C/c1ccc([C@@H]2[C@H]3CN(S(=O)(=O)c4ccc(OC)cc4)CCCCN3[C@H]2CO)cc1
1	-1	2.2	CCCC(=O)N1C[C@@H]2[C@H](c3ccccc31)[C@H](CO)N2C(=O)Nc1ccccc1
6	1	4.7	C[C@@H]1CN([C@H](C)CO)C(=O)CCCn2nncc2CO[C@H]1CN(C)S(=O)(=O)c1ccc(C#N)cc1
-8	4	-12	Cc1ccc(-c2ccccc2[C@@H]2[C@H](C#N)N(c3ncc(-c4ccccc4)s3)[C@H]2CO)cc1
1	-1	1.8	O=C(C[C@@H]1C=C[C@@H](NC(=O)C2CC2)[C@H](CO)O1)NCc1ccncc1
-47*	-28*	-19*	O=C(C[C@@H]1C[C@H]2c3cc(NC(=O)Nc4ccc(C(F)(F)F)cc4)ccc3O[C@H]2[C@H](CO)O1)NCc1ccc2c(c1)OCO2
-5	-11	6.2	COCC#Cc1ccc([C@@H]2[C@H]3CN(C(=O)Nc4cc(F)ccc4F)CCCCN3[C@H]2CO)cc1
2	-4	5.2	COc1ccc(NC(=O)N2C[C@H]3[C@@H](c4ccccc42)[C@H](CO)N3Cc2ccccn2)cc1
26	25	1.2	O=C(c1ccccc1F)N1CC[C@H]2[C@H](CO)Nc3ccc(Br)cc3[C@H]21
9	0	8.6	O=C(C[C@H]1C[C@H]2c3cc(NC(=O)Nc4ccccc4)ccc3O[C@H]2[C@H](CO)O1)NCCN1CCCCC1
8	2	6.4	COc1ccccc1NC(=O)N1C[C@H](O)COC[C@H]2O[C@@H](CC(=O)NCc3ccccc3)CC[C@@H]21
1	2	-1.3	COc1ccccc1C(=O)Nc1ccc2c(c1)C(=O)N(C)[C@H]1CC[C@@H](CC(=O)NCCc3ccncc3)O[C@@H]1CO2
15	-1	16	COCC(=O)N1CC2(CCN(C(C)=O)CC2)c2c([nH]c3cc(OC)ccc23)[C@@H]1CO
6	5	0.5	O=C(NCc1ccc(F)cc1)[C@H]1[C@H](CO)[C@H]2Cn3c(cccc3=O)[C@H]2N1Cc1ccccn1
-1	-3	2.5	C[C@@H](NC(=O)C[C@H]1C[C@@H]2c3cc(NS(=O)(=O)c4ccc(F)cc4)ccc3O[C@@H]2[C@H](CO)O1)c1ccccc1
1	-4	5.4	O=S(=O)(c1ccc(F)cc1)N1CC[C@@H]2[C@H]1c1cc(-c3ccccc3F)ccc1N[C@@H]2CO
19	13	5.9	O=C(NC1CCCC1)N1CCCCN2[C@H](CO)[C@H](c3ccc(-c4cncnc4)cc3)[C@@H]2C1
11	6	4.8	C[C@@H](NC(=O)C[C@@H]1C[C@H]2c3cc(NC(=O)CN(C)C)ccc3O[C@H]2[C@@H](CO)O1)c1ccccc1
-2	-1	-0.6	CCC(=O)NC[C@H]1N[C@H](CO)[C@@H]1c1ccc(-c2ccccc2F)cc1
7	0	6.9	CCCC#Cc1ccc([C@H]2[C@H]3CN(CC4CCOCC4)CCCCN3[C@H]2CO)cc1
0	-3	2.6	COC(=O)C[C@H]1CC[C@@H]2[C@H](COC[C@@H](O)CN2S(=O)(=O)c2ccccc2OC)O1
11	10	0.7	CCCC(=O)N1CCC2(CC1)CN(S(C)(=O)=O)[C@H](CO)c1c2c2ccc(OC)cc2n1C
-2	0	-2.1	C[C@@H]1CN([C@H](C)CO)C(=O)CCCn2nncc2CO[C@H]1CN(C)C(=O)Nc1cccc(F)c1
5	-1	6.5	CO[C@H]1CN(C)C(=O)c2ccc(NS(=O)(=O)CC(F)(F)F)cc2OC[C@@H](C)N(C(=O)NC(C)C)C[C@@H]1C
10	7	2.2	O=C(O)C[C@@H]1CC[C@H](NC(=O)CCN2CCCCC2)[C@H](CO)O1
15	3	13	CCC(=O)N1CC2(CN(C(=O)NC(C)C)C2)c2c(n(C)c3cc(OC)ccc23)[C@H]1CO
0	1	-1.2	N#C[C@H]1[C@@H](c2ccc(-c3cccc(F)c3)cc2)[C@H](CO)N1C(=O)CN1CCOCC1
12	1	11	C/C=C/c1ccc([C@@H]2[C@@H](CO)N3C(=O)CN(Cc4ccc(F)cc4)C[C@H]23)cc1
-4	-1	-2.8	C[C@@H]1CN([C@H](C)CO)C(=O)c2cc(NS(=O)(=O)c3ccc(F)cc3)ccc2O[C@@H](C)CCCCO[C@@H]1CN(C)Cc1ccc(C(=O)O)cc1
10	7	2.3	O=C(C[C@H]1CC[C@@H]2NC[C@H](O)COC[C@H]2O1)NCCc1ccccc1
14	9	4.4	COCC(=O)N1CC(=O)N2[C@@H](CO)[C@H](c3ccc(-c4ccncc4)cc3)[C@@H]2C1
13	9	4.4	CN(C)C(=O)c1ccc(-c2ccc([C@@H]3[C@@H](CO)N4C(=O)CN(C(=O)CC5CC5)C[C@H]34)cc2)cc1
3	2	0.5	C[C@H](CO)N1C[C@H](C)[C@@H](CN(C)Cc2ccccc2)OCc2cn(nn2)CCCC1=O
?	.	.	OC[C@H]1[C@H](c2ccc(/C=C/c3ccccc3)cc2)[C@@H]2CN(Cc3ccncc3)CCCCN12
-4	6	-9.6	CC(C)CC#Cc1ccc([C@H]2[C@H]3CN(C(=O)c4cccc(F)c4)CC(=O)N3[C@H]2CO)cc1
13	4	9.1	COc1ccccc1-c1ccc([C@@H]2[C@@H](CO)N3CCCCN(S(=O)(=O)c4cn(C)cn4)C[C@H]23)cc1
1	-4	4.8	COCC(=O)N1[C@@H](CO)[C@H](c2ccccc2)C12CN(C(=O)c1ccccc1)C2
2	0	3.0	CCC(=O)N1[C@H](CO)[C@H](c2ccc(-c3cccc(OC)c3)cc2)[C@@H]1CNC(C)=O
2	9	-7.2	CNC[C@@H]1OCCCC[C@@H](C)Oc2ccc(NC(=O)CCC(F)(F)F)cc2C(=O)N([C@H](C)CO)C[C@H]1C
2	1	1.3	CN(C)C(=O)C[C@@H]1CC[C@@H]2[C@H](COC[C@H](O)CN2C(=O)c2ccncc2)O1
3	-1	3.8	CNC[C@@H]1Oc2cc(-c3ccc(C(=O)N(C)C)cc3)ccc2S(=O)(=O)N([C@@H](C)CO)C[C@H]1C
-6	-4	-2.3	CO[C@H]1CN(C)C(=O)c2ccc(NC(=O)Nc3cccc(Cl)c3)cc2OC[C@@H](C)NC[C@H]1C
8	7	0.6	COC(=O)[C@H]1[C@H](CO)[C@H]2Cn3c(ccc(-c4cncnc4)c3=O)[C@H]2N1C(=O)C1CCC1
7	0	7.4	CN(C)CC(=O)Nc1ccc2c(c1)[C@H]1C[C@H](CC(=O)N3CCCCC3)O[C@H](CO)[C@H]1O2
5	6	-1.2	O=C(c1ccncc1)N1C[C@@H]2[C@H](c3ccccc31)[C@@H](CO)N2C(=O)c1ccncc1

13 entries from above in a different format:
Every second line gives: DUX4 inh, DUX4 inh difference, DUX4 inh control
C[C@H](CO)N1C[C@H](C)[C@@H](CN(C)Cc2ccccc2)OCc2cn(nn2)CCCC1=O
→ 3, 2, 0.5
OC[C@H]1[C@H](c2ccc(/C=C/c3ccccc3)cc2)[C@@H]2CN(Cc3ccncc3)CCCCN12
→ ?, ., .
CC(C)CC#Cc1ccc([C@H]2[C@H]3CN(C(=O)c4cccc(F)c4)CC(=O)N3[C@H]2CO)cc1
→ -4, 6, -9.6
COc1ccccc1-c1ccc([C@@H]2[C@@H](CO)N3CCCCN(S(=O)(=O)c4cn(C)cn4)C[C@H]23)cc1
→ 13, 4, 9.1
COCC(=O)N1[C@@H](CO)[C@H](c2ccccc2)C12CN(C(=O)c1ccccc1)C2
→ 1, -4, 4.8
CCC(=O)N1[C@H](CO)[C@H](c2ccc(-c3cccc(OC)c3)cc2)[C@@H]1CNC(C)=O
→ 2, 0, 3.0
CNC[C@@H]1OCCCC[C@@H](C)Oc2ccc(NC(=O)CCC(F)(F)F)cc2C(=O)N([C@H](C)CO)C[C@H]1C
→ 2, 9, -7.2
CN(C)C(=O)C[C@@H]1CC[C@@H]2[C@H](COC[C@H](O)CN2C(=O)c2ccncc2)O1
→ 2, 1, 1.3
CNC[C@@H]1Oc2cc(-c3ccc(C(=O)N(C)C)cc3)ccc2S(=O)(=O)N([C@@H](C)CO)C[C@H]1C
→ 3, -1, 3.8
CO[C@H]1CN(C)C(=O)c2ccc(NC(=O)Nc3cccc(Cl)c3)cc2OC[C@@H](C)NC[C@H]1C
→ -6, -4, -2.3
COC(=O)[C@H]1[C@H](CO)[C@H]2Cn3c(ccc(-c4cncnc4)c3=O)[C@H]2N1C(=O)C1CCC1
→ 8, 7, 0.6
CN(C)CC(=O)Nc1ccc2c(c1)[C@H]1C[C@H](CC(=O)N3CCCCC3)O[C@H](CO)[C@H]1O2
→ 7, 0, 7.4
O=C(c1ccncc1)N1C[C@@H]2[C@H](c3ccccc31)[C@@H](CO)N2C(=O)c1ccncc1
→ 5, 6, -1.2

(further entries)
DUX4 inh	DUX4 inh difference	DUX4 inh control	canonical_smiles
-3	-4	1.5	C[C@H]1CN([C@@H](C)CO)C(=O)c2cc(NC(=O)C3CCCCC3)ccc2O[C@@H]1CN(C)C(=O)Nc1ccc(C(F)(F)F)cc1
?	.	.	CCCNC(=O)N1[C@H](C#N)[C@@H](c2ccccc2C2=CCCCC2)[C@@H]1CO
0	-2	1.3	CC(=O)Nc1ccc2c(c1)C(=O)N(C)[C@@H]1CC[C@H](CC(=O)NCc3ccc4c(c3)OCO4)O[C@H]1CO2
3	7	-3.7	CS(=O)(=O)Nc1ccc2c(c1)[C@@H]1C[C@H](CC(=O)NCCc3ccccc3)O[C@@H](CO)[C@@H]1O2
-5	0	-5.0	C[C@H](CO)N1C[C@H](C)[C@@H](CN(C)S(=O)(=O)c2ccccc2)Oc2ccc(NC(=O)Nc3ccc4c(c3)OCO4)cc2CC1=O
?	.	.	COc1ccc2c3c(n(C)c2c1)[C@@H](CO)N(C(=O)c1cccc(F)c1)CC31CN(C(=O)c2cccc(F)c2)C1
-2	0	-1.6	O=C(C[C@H]1C[C@@H]2c3cc(NC(=O)C4CCC4)ccc3O[C@@H]2[C@H](CO)O1)NCc1ccc(Cl)cc1
2	-1	2.7	O=C(C[C@@H]1C[C@H]2c3cc(NC(=O)C4CCOCC4)ccc3O[C@H]2[C@H](CO)O1)NCc1cc(F)ccc1F
1	-2	3.1	CCc1cnc(N2[C@@H](C#N)[C@@H](c3ccc(C#Cc4ccccc4F)cc3)[C@@H]2CO)s1
-4	-7	3.4	CN1c2ccc(Br)cc2[C@H]2[C@H](CCN2C(=O)c2cccc(F)c2)[C@@H]1CO
-2	-2	0.1	CN1C(=O)c2cc(NC(=O)Cc3cccs3)ccc2OC[C@@H]2O[C@H](CC(=O)N[C@H]3CCN(Cc4ccccc4)C3)CC[C@H]21
5	-7	12	COc1ccc2c3c(n(C)c2c1)[C@H](CO)N(C(=O)c1cccnc1)CC31CCN(S(=O)(=O)c2ccccc2)CC1
11	2	8.3	C[C@H](NC(=O)C[C@H]1CC[C@@H]2[C@H](COC[C@H](O)CN2C(=O)Nc2cccc(F)c2)O1)c1ccccc1
0	-1	1.6	N#C[C@H]1[C@@H](c2ccc(-c3cccc(F)c3)cc2)[C@H](CO)N1c1nc(-c2ccccc2)cs1
2	6	-3.5	CN1[C@H](C(=O)NC2Cc3ccccc3C2)[C@@H](CO)[C@@H]2Cn3c(ccc(-c4cccnc4)c3=O)[C@@H]21
9	10	-0.9	Cc1cccc(S(=O)(=O)N2C[C@@H](O)COC[C@@H]3O[C@@H](CC(=O)NCc4ccc5c(c4)OCO5)CC[C@H]32)c1
-6	-2	-4.2	C[C@@H]1CCCCO[C@@H](CN(C)C(=O)c2ccncc2)[C@H](C)CN([C@@H](C)CO)C(=O)c2cc(N(C)C)ccc2O1
6	-1	7.2	CN(C)C(=O)C[C@@H]1CC[C@@H]2[C@H](COC[C@@H](O)CN2S(=O)(=O)c2ccccc2)O1
0	2	-1.3	CNC[C@@H]1Oc2c(NC(=O)c3ccc(-c4nccs4)cc3)cccc2C(=O)N([C@H](C)CO)C[C@@H]1C
